CapD inh: inhibitors of Bacillus anthracis CapD enzyme | z-score (test concentration not listed) | purified CapD enzyme, fluorescence intensity read-out; active compounds read low; some hits fall short of the stated cut | 0.23% of 140,000 active | AID 492967;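 active means z-score under -4 in either of two replicates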;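 further: stock transfer was 100 nL into about 40 µL; score is relative to mean and spread of the plate; one replicate is shown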
AID504770: growth inhibitors of E. coli YBA685 in a screen for V. cholerae RctB (chromosome II replication) inhibitors; E. coli YBA685 rctB-dependent plasmid, OD600 growth, 3 h; active compounds read low; AID 504770; z-score (concentration not given with the values); 0.27% of 130,000 active;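 active means z-score under -2 on both plates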;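 further: wells of about 30 µL received 100 nL stock; score is relative to mean and SD of the test wells; the first replicate is given; strong numbers were not always called active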
The depositor's hits bear a star; · = not tested or not shown; & = joins results of further samples. Only part of the results is shown. The share of hits here may be higher or lower than overall.

A first look (2 entries):
SMILES	CapD inh	AID504770
O=C(NNc1ncccc1-n1cccc1)Nc1ccc(OC(F)(F)F)cc1	-0.65	-0.45
CC1CCN(CC(=O)Nc2ccc(C(=O)O)cc2)CC1	·	0.05

The whole of this part (from the top)
SMILES	CapD inh	AID504770
O=C(NNc1ncccc1-n1cccc1)Nc1ccc(OC(F)(F)F)cc1	-0.65	-0.45
CC1CCN(CC(=O)Nc2ccc(C(=O)O)cc2)CC1	·	0.05
O=C(/C=C/c1ccccc1)Nc1cccnc1Oc1ccc(F)cc1	-1.2	-0.9
COCCn1c(=NC(=O)CCOc2ccccc2)sc2cc(OC)ccc21	·	-0.3
CC(C)CCCC(C)C1CCC2C3CC=C4CC(OC(=O)C5CCCC5)CCC4(C)C3CCC12C (centres undefined)	0.14	·
Cc1cc(C)nc(N2CCN(C(=O)CCC(=O)N3CCCCC3)CC2)n1	1.6	·
CN1CCC(OC(c2ccccc2)c2ccccc2)CC1	-0.16&-0.54	0.05
COc1ccc(/C=N/NC(=O)c2ccc(S(N)(=O)=O)cc2)c2ccccc12	0.3	·
Cn1nccc1C(=O)Nc1ccc(Cl)cc1	-0.86	1.6
OCCNc1nc(-c2ccccc2)c2cc(Cl)ccc2n1	0.69	0.45
O=C(COC(=O)C1COc2ccccc2O1)c1ccccc1 (centres undefined)	·	-1.6
COc1ccc(COC(=O)NNC(=O)c2scc(C)c2Cl)c(Cl)c1OC	0.35	·
CCOc1ccc(C2=CSC3=NCCN23)cc1Cl	·	0.25
Cc1c(C(=O)N2c3ccc(F)cc3CCC2C)sc2ncn(Cc3ccccc3Cl)c(=O)c12 (centres undefined)	0.31	·
Cc1ccc2c(c1)CN1CN2Cc2cc(C)ccc21	0.65	0.6
O=C(NC1CCN(Cc2ccccc2)CC1)c1c(Cl)cccc1Cl	1.1	·
CCn1c2ccccc2c2cc(NC(=O)C(C)N3CC(C)OC(C)C3)ccc21 (centres undefined)	·	-0.25
CCc1cc(=O)oc2c3c(ccc12)OCN(Cc1ccccc1)C3	90	-1.2
FC(F)(F)Oc1ccc(-n2nnnc2SCCN2CCCCC2)cc1	·	-0.85
CC12NC(=O)NC1(C)NC(=O)N2 (centres undefined)	-0.005	·
O=C(Nc1ccccc1C(=O)N/N=C/c1cc(Br)ccc1O)c1cccs1	-0.13	·
COc1ccc(C(=O)Nn2c(SCC(=O)c3ccc(Cl)cc3)nc3ccccc3c2=O)cc1	-0.97	·
COc1cccc(CNS(=O)(=O)c2ccc(Br)cc2)c1	0.55	·
CC(=O)Nc1cccc(NC(=O)CSc2ncc(C(=O)Nc3ccccc3)c(=O)n2C)c1	·	-0.85
COc1ccc(OC)c(NC(=O)c2cc3cc(OC)ccc3oc2=Nc2ccc(C(=O)O)cc2)c1	-0.47	·

(list continues)
SMILES	CapD inh	AID504770
COc1ccc2[nH]c3c(c2c1)CCNC3C (centres undefined)	0.02	-0.45
O=c1[nH]c(=S)[nH]c2c1CCCC2	·	0.4
CCN=C1NC(=O)C(CC(=O)Nc2ccc(Oc3ccccc3)cc2)S1 (centres undefined)	·	-0.1
CCOC(=O)C1=NNC2C(=O)N(c3ccccc3)C(=O)C12 (centres undefined)	-0.12	·
COC(=O)c1ccc(C(=O)OC)c(NC(=O)c2cc(-c3ccc(C)cc3)nc3ccccc23)c1	1.2	·
CC1(C)Cc2cccc(C(=O)NCc3ccco3)c2O1	1.7	-0.25
COc1cc(/C=C2/N=C(c3ccc(-c4ccccc4)cc3)OC2=O)cc(OC)c1OC	0.47	·
Cc1oc2ccc(NS(=O)(=O)c3ccccc3)cc2c1C(=O)O	-0.65	-0.55
O=C(c1ccc(Cl)cc1)c1cnc(Nc2ccc(Cl)c(Cl)c2)s1	2.1	·
O=C1CC(c2ccccc2)C(=O)N1c1cc(Cl)cc(Cl)c1 (centres undefined)	-0.24	-1.1
CC1=C(C(=O)OC(C)C)C(c2cc(Br)ccc2F)C2=C(CC(c3cccs3)CC2=O)N1 (centres undefined)	35	·
CCc1ccccc1N1C(=O)C2C3c4ccccc4C(CO)(c4ccccc43)C2C1=O (centres undefined)	-0.31	·
COCCNc1nc(SCc2ccccc2F)nc2ccccc12	1.4	·
CCN(Cc1nc(-c2ccc(C)cc2)no1)C(=O)NC(C)(C)C	0.19	0.35
CCn1c(=O)c2ccccc2n(CC(=O)N2CCCCC2C)c1=O (centres undefined)	·	-0.65
CC(C)NC(=O)c1ccccc1N	90	-0.8
O=C(O)C1CCN(/C=C/C(=O)C(F)(F)F)CC1	·	0.55
Cc1ccc2nsnc2c1NC(=O)c1cccc(Cl)c1	0.65	0.05
O=c1cc(-c2ccccc2)oc2cc(O)cc(O)c12	-0.28&1.3	0.3
CCOc1ccc(CCNC(=O)c2cc3c(C)nc4ccccc4c3o2)cc1OCC	-0.29	0.2
CCCCC(C(=O)Nc1ccc(OC)cc1)N1C(=O)C2C3c4ccccc4C(c4ccccc43)C2C1=O (centres undefined)	0.38	·
Cc1ccc(S(=O)(=O)NCCC(=O)Oc2cc3oc(=O)c4c(c3cc2Cl)CCCC4)cc1	38	-0.6
O=C1/C(=C/C2=Cc3ccccc3OC2)SC(=S)N1C1CCS(=O)(=O)C1 (centres undefined)	·	-1.2
COc1ccc(OC)c(C2C(N3C(=O)c4c(Cl)c(Cl)c(Cl)c(Cl)c4C3=O)C(=O)N2c2cc(Cl)ccc2C)c1 (centres undefined)	-0.19	·
O=C(NCc1ccc(Cl)c(Cl)c1)c1ccc(N2CCCC2=O)cc1	-0.76	·

More results
SMILES	CapD inh	AID504770
COc1ccc(C2CC(=O)n3nc(-c4ccc(F)cc4)nc3S2)cc1OC (centres undefined)	0.035	-0.65
Cn1c(C(C#N)C(=O)c2ccc(C(C)(C)C)cc2)nc2ccccc21 (centres undefined)	0.34	0.5
O=C(Cn1cnc2c(oc3ccccc32)c1=O)Oc1ccccc1Cl	·	-0.5
OC(Cn1ccc2ccccc21)Cn1cnc2ccccc21 (centres undefined)	0.23	-0.5
CC(C)CNC(=S)N1CCC(c2nc(-c3ccc(F)cc3)no2)CC1	·	-0.55
O=S(=O)(c1ccc(Cl)cc1)N1CCC(n2cccc2)CC1	0.5	-0.2
O=C(NCc1ccc(F)cc1)c1c(O)c2cccc3c2n(c1=O)CCC3	0.42	·
CC1CCCCN1S(=O)(=O)c1cccc2cccnc12 (centres undefined)	-0.41	-0.3
COc1ccc2ccc(Oc3ncccn3)cc2c1	·	0.2
COc1ccc(Br)c2c1OCCO2	0.15	-1.1
CSc1nsc(SCC(=O)N2CCCC2)n1	0.93	-0.05
CCCC/C(=N\O)c1c(C)[nH]c2ccccc12	-0.16	2
NC(N)=N/N=C/c1ccccc1C(F)(F)F	·	-0.15
N#Cc1ccccc1NC(=O)Nc1ccc(CN2CCOCC2)cc1	114	-0.85
CS(=O)(=O)Nn1cnc2ccccc2c1=O	-0.49	-0.9
COc1ccc2nc(C)cc(N3CCOCC3)c2c1	-1.1	0.2
COc1cc(Cl)c(NC(=O)c2cccc(C(F)(F)F)c2)c(OC)c1	-0.51	·
O=C(/C=C/c1ccccc1)NC1CCSC1=O (centres undefined)	·	1.5
CNC(=O)CCCn1nc(C)c2c(C)n(-c3ccc(C)cc3)nc2c1=O	-0.66	0.8
CSc1nc(C2CC2)nc(C2CC2)c1C#N	0.12	-0.5
Clc1ccc(COn2c(-c3ccc(Cl)cc3)nc3ccccc32)cc1	0.72	·
O=C1c2ccc(-c3nc4ccccc4c(=O)o3)cc2C(=O)N1c1cccnc1	0.25	-0.8
CC(=O)Nc1ccc(S(=O)(=O)NCC(=O)OCc2cc(=O)n3cc(Br)ccc3n2)cc1	·	-1.7
CNC(=O)COC(=O)c1nc(Cl)c(Cl)c(Cl)c1Cl	·	-0.3
O=C(NC(Cc1ccccc1)C(=O)O)c1ccc(Cl)cc1 (centres undefined)	0.32	·

Single records (already shown).
`COc1ccc(C2CC(=O)n3nc(-c4ccc(F)cc4)nc3S2)cc1OC` (centres undefined) in the list: CapD inh = 0.035; AID504770 = -0.65
`Cc1cc(C)nc(N2CCN(C(=O)CCC(=O)N3CCCCC3)CC2)n1` in the list: CapD inh = 1.6; AID504770 = ·
`CCCC/C(=N\O)c1c(C)[nH]c2ccccc12` in the list: CapD inh = -0.16; AID504770 = 2

The list continues:
SMILES	CapD inh	AID504770
COc1ccc(S(=O)(=O)N2CCN(C)CC2)cc1	-0.22	·
O=C(c1ccc(C(F)(F)F)cc1)N1CCN(c2cc(C(F)(F)F)ccn2)CC1	38	-0.65
COC(=O)Nc1ccccc1NC(=O)OC	0.15	-0.5
CC(C)(C)c1ccc(-c2nnc(CS(=O)(=O)c3ccc(Cl)cc3)o2)cc1	1.1	0.35
O=C(CN1CCC(NC(=O)NC2CCCCC2)CC1)NCc1ccccc1	·	1.6
Cc1nc(N2CCSCC2)ncc1S(=O)(=O)c1ccc(Cl)cc1	0.72	0.55
C=CCc1cccc2cc(C(=O)N(C)C)c(=O)oc12	3.8&7.1	0.2&-0.05
CC(C#N)Sc1nn(-c2ccc(Cl)c(Cl)c2)c(=S)s1 (centres undefined)	·	-0.4
O=C(NNc1nc2ccccc2nc1C(F)(F)F)c1ccc(Cl)cc1	-0.82	·
CN(C)C(=O)CSc1nc2ccc(Cl)cc2[nH]1	·	0.55
Cc1cc(Cl)c(Cl)cc1S(=O)(=O)n1cccn1	-0.56	-0.8
Cc1nc(SCCOc2ccccc2)sc1C(=O)Nc1ccccc1	-1.3	0.8
CC(C)CC(=O)N1CCN(C(=O)C2CC2)CC1	·	1.4
O=C(O)c1c(-n2cccc2)sc2c1CCCC2	-0.37	-0.95
Cn1c(=O)c2ccccc2n(CC(N)=O)c1=O	·	1.7
NC(=O)c1cc[n+](CC2=C(C(=O)[O-])N3C(=O)[C@@H](NC(=O)Cc4cccs4)[C@H]3SC2)cc1	-0.18	·
CCOC(=O)c1c(C)oc(C)c1S(N)(=O)=O	0.41	-0.55
Cc1c(Cl)cccc1NC(=O)C1COc2ccccc2O1 (centres undefined)	-0.23	·
O=C(Cc1csc(-c2ccccc2)n1)Nc1cccnc1	·	0.1
O=C1C2C(c3ccccc3Cl)OC3(C(=O)c4ccccc4C3=O)C2C(=O)N1c1ccccc1C(F)(F)F (centres undefined)	0.45	·
CCN(CCOC(=O)NNC(=O)CNS(=O)(=O)c1cccc2nsnc12)c1cccc(C)c1	0.27	·
O=c1[nH]c(=O)n([C@H]2C[C@H](O)[C@@H](CO)O2)cc1Br	0.33	0.75
Cc1nnc(-c2ccc(C(F)(F)F)cn2)nc1C	-0.095	-0.3
CCOC(=O)c1c(NC(=S)Nc2cc(C)nn2-c2ccccc2)sc(C)c1C	-0.63	2.3
CC(OC(=O)c1ccccc1NS(C)(=O)=O)C(=O)Nc1ncc(Cl)cc1Cl (centres undefined)	·	-0.45

Six neighbouring compounds from above:
SMILES	CapD inh	AID504770
Cn1c(=O)c2ccccc2n(CC(N)=O)c1=O	·	1.7
NC(=O)c1cc[n+](CC2=C(C(=O)[O-])N3C(=O)[C@@H](NC(=O)Cc4cccs4)[C@H]3SC2)cc1	-0.18	·
CCOC(=O)c1c(C)oc(C)c1S(N)(=O)=O	0.41	-0.55
Cc1c(Cl)cccc1NC(=O)C1COc2ccccc2O1 (centres undefined)	-0.23	·
O=C(Cc1csc(-c2ccccc2)n1)Nc1cccnc1	·	0.1
O=C1C2C(c3ccccc3Cl)OC3(C(=O)c4ccccc4C3=O)C2C(=O)N1c1ccccc1C(F)(F)F (centres undefined)	0.45	·

The list goes on.
SMILES	CapD inh	AID504770
CCN(CC)S(=O)(=O)c1ccc2c(c1)nc1n2CCCCC1	0.34	-0.1
CCOC(=O)c1c(C)oc(NC(=O)COc2ccc(Cl)cc2Cl)c1C#N	·	0.15
N#CC(C(=O)C1COc2ccccc2O1)c1nc2ccccc2s1 (centres undefined)	·	2.6
CN(C(=O)Cn1cnc2onc(-c3ccc(F)cc3)c2c1=O)c1ccc(Br)cc1	-0.045	0.1
CC(C)(C)C(=O)/C=c1\[nH]c(=O)/c(=C\c2cn(CCC#N)nc2-c2ccccc2)s1	·	0.6
COC(OC)c1ccc2c(N)c(C(=O)c3ccc(C)cc3)sc2n1	0.025	-0.2
CCOC(=O)/C(C#N)=C(\C)C1CCCCC1	·	0.15
O=c1/c(=C/c2ccc(-c3ccc(F)cc3)o2)sc2nc3cc(Br)cnc3n12	0.97	0.3
Clc1nc(NCCN2CCOCC2)nc(Nc2ccc3c(c2)OCO3)n1	0.2	-0.65
O=C(O)c1nccnc1-c1nc2ccccc2c(=O)[nH]1	-0.26	0.45
CCOC(=O)c1cc(-c2ccc(F)cc2)n(CC(=O)Nc2nnc(SCC)s2)c1C	-0.57	1.1
COc1ccc2nc(NC3=NC(c4ccccc4)CC(=O)N3)nc(C)c2c1 (centres undefined)	6.1	·
O=C(/C=C/c1ccco1)NCc1ccccc1	·	-0.65
COC(=O)C(CC(=O)c1ccc(Br)cc1)n1nc(C)cc1C (centres undefined)	-0.08	-0.05
CCOC(=O)c1ccc(N2C(=O)CC(N3CCN(Cc4ccccc4Cl)CC3)C2=O)cc1 (centres undefined)	0.38	-0.2
Cc1cc(C(=O)Oc2cccc(Cl)c2)n(C(C)(C)C)n1	0.48	0.1
CC(C)(C)c1ccc(Oc2cc(Oc3ccc(C(C)(C)C)cc3)c3noc4c3c2C(=O)c2ccccc2-4)cc1	-0.27	·
C=CCN1CCN(C(=O)c2csc(CCC)c2)CC1	0.04	-0.5
Cc1ccccc1NC(=O)NCCCN1CCCC1	-0.52	0.45
CCCC1=Nc2cc(C(=O)NCCCN3CCN(C)CC3)ccc2Sc2ccccc21	-0.63	0.05
Cc1csc(-c2cc3ccccc3oc2=O)n1	·	-0.75
O=C(O)c1ccccc1S(=O)(=O)c1ccccc1C(=O)O	1.1	-0.3
Cc1sc2ncn(CC(=O)Nc3ccccc3)c(=O)c2c1C	0.51	-0.6
O=C(c1cccc(F)c1)N1CCOCC1	0.06	-0.9
O=C(CSc1nc2ccccc2s1)Nc1ccncc1	0.8	-1.3
CCOC(=S)SCc1nc(-c2ccc(Cl)cc2)no1	0	0.85
COc1ccc(-c2nn(-c3ccccc3)cc2C=C2C(=O)CC(C)(C)CC2=O)cc1	-2.8	0.05

Screening data (PubChem)
